rRNA inh HTS = inhibits bacterial ribosomal RNA function over humanized ribosomes | E. coli WT GFP vs humanized-ribosome RFP mutants, fluorescence, 24 h; hits give low values; DMSO median 0, no signal -100 | GFP signal change (wild-type ribosome), % (test concentration not listed) | 350,000 tested, 1.6% active | AID 720706;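 active = significant combined selectivity score with lowered wild-type GFP, culture density cut under 30%, mutant RFP and density less affected; inactive = any of these conditions unmet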; note: one replicate is shown; some compounds called inactive have numbers as strong as hits
rRNA inh HTS OD600 = also measured in rRNA inh HTS; calls as there; OD600 change, %; measured here: OD600 growth;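 optical density of the mix in the first replicate; 0 = DMSO median and -100 = no signal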
rRNA inh HTS RFP = further read-out of rRNA inh HTS, marked with its call; RFP signal change, %; measured here: RFP humanized mutant strains;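 first replicate; 0 = DMSO median and -100 = no signal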
The depositor's hits bear a star; & = joins results of further samples. Some of the compounds tested; rates above refer to the full screens.

SMILES	rRNA inh HTS	rRNA inh HTS OD600	rRNA inh HTS RFP
C[C@H](CO)N1C[C@H](C)[C@@H](CN(C)C(=O)Nc2ccc(C(F)(F)F)cc2)Oc2ccc(NC(=O)CCN3CCOCC3)cc2C1=O	-1	-8	0.3
C[C@H](CO)N1C[C@H](C)[C@H](CN(C)S(=O)(=O)c2ccc(F)cc2)Oc2ccc(NC(=O)CCN3CCOCC3)cc2CC1=O	1	0	1.2
COCC(=O)Nc1ccc2c(c1)[C@@H]1C[C@@H](CC(=O)NCCN3CCCCC3)O[C@@H](CO)[C@@H]1O2	1	5	0.3
CO[C@H]1CN(C)C(=O)c2ccc(NC(=O)c3ccc(F)cc3)cc2OC[C@@H](C)N(C(=O)CN(C)C)C[C@@H]1C	4	1	-0.1
Cc1ccc(S(=O)(=O)N2C[C@@H](C)[C@]3(C2)[C@H](O)[C@H](OC(=O)Nc2cccs2)C[C@H]2C(=O)N(c4ccccc4)C(=O)[C@H]23)cc1	0	-8	7.5
COCC(=O)N(C)C[C@H]1[C@H](c2ccccc2)[C@@H](CO)N1C(=O)Cc1ccncc1	1	3	-3.1
O=C(C[C@H]1C[C@H]2c3cc(NC(=O)NC4CCCCC4)ccc3O[C@H]2[C@H](CO)O1)NCc1ccccc1	5	9	-1.5
COc1ccc(NC(=O)Nc2ccc3c(c2)[C@H]2C[C@H](CC(=O)NCCc4ccccc4)O[C@@H](CO)[C@H]2O3)cc1	1	4	0.7
N#Cc1cccc(-c2ccc3c(c2)[C@H]2[C@H](CCN2S(=O)(=O)c2ccc(F)cc2)[C@H](CO)N3)c1	-8	-19	-0.9
CNC[C@@H]1Oc2c(cccc2N(C)C)C(=O)N(C)C[C@H]1C	2	1	-1.8
CN1c2ccc(C3=CCCCC3)cc2[C@H]2[C@H](CCN2S(=O)(=O)c2ccccc2)[C@@H]1CO	-1	3	0.1
COc1ccccc1-c1ccc([C@H]2[C@@H](CO)N(C(=O)C3CCOCC3)[C@H]2C#N)cc1	0	-9	-0.8
Cc1noc(C)c1NC(=O)Nc1ccc2c(c1)C(=O)N(C)[C@@H]1CC[C@@H](CC(=O)N(C)C)O[C@@H]1CO2	3	2	0.4
C[C@H]1CN([C@@H](C)CO)C(=O)Cc2cc(NS(=O)(=O)c3ccccc3)ccc2O[C@@H]1CN(C)S(=O)(=O)c1ccc(F)cc1	-2	-2	-0.3
CO[C@H]1CN(C)C(=O)c2cc(NC(=O)c3cc(C)on3)ccc2OC[C@H](C)N(C(=O)C2CC2)C[C@@H]1C	2	-2	-0.6
Cn1cnc(CCNC(=O)C[C@H]2CC[C@@H]3[C@H](COC[C@H](O)CN3C(=O)C3CC3)O2)c1	-3	18	1.4
CO[C@@H]1CN(C)C(=O)c2ccc(NC(=O)C3CC3)cc2OC[C@H](C)N(Cc2nccs2)C[C@@H]1C	1	-4	1.0
O=C([C@H]1[C@H](CO)[C@H]2Cn3c(ccc(-c4ccccc4)c3=O)[C@@H]1N2Cc1cccnc1)N1CCOCC1	5	5	0.5
CC(C)NC(=O)N(C)C[C@H]1Oc2ccc(NC(=O)Nc3ccc4c(c3)OCO4)cc2C(=O)N([C@@H](C)CO)C[C@H]1C	5	6	0.5
Cc1noc(C)c1S(=O)(=O)Nc1ccc2c(c1)CC(=O)N([C@@H](C)CO)C[C@@H](C)[C@H](CN(C)S(C)(=O)=O)O2	2	8	-3.1
C[C@@H]1CN([C@@H](C)CO)C(=O)c2cc(NS(=O)(=O)c3cn(C)cn3)ccc2O[C@@H](C)CCCCO[C@H]1CN(C)Cc1ccncc1	-3	-4	-2.5
C[C@@H]1CN([C@H](C)CO)S(=O)(=O)c2ccc(C#Cc3ccccc3F)cc2O[C@H]1CN(C)C(=O)Cc1ccccc1	0	1	2.0
CCCNC(=O)C[C@H]1CC[C@H]2[C@@H](COC[C@H](O)CN2Cc2ccncc2)O1	-3	-6	0.4
Cc1noc(C)c1S(=O)(=O)Nc1ccc2c(c1)CC(=O)N([C@@H](C)CO)C[C@H](C)[C@@H](CN(C)S(=O)(=O)c1cn(C)cn1)O2	-2	9	-0.6
CC(C)CC#Cc1cnc2c(c1)C(=O)N([C@@H](C)CO)C[C@@H](C)[C@H](CN(C)C(=O)CN1CCOCC1)O2	1	19	-5.8

The list goes on.
SMILES	rRNA inh HTS	rRNA inh HTS OD600	rRNA inh HTS RFP
C[C@@H]1CN([C@@H](C)CO)C(=O)c2cc(-c3ccccc3F)cnc2O[C@H]1CN(C)C	5	12	-3.7
COc1ccc(NC(=O)Nc2ccc3c(c2)C(=O)N([C@@H](C)CO)C[C@H](C)[C@H](CN(C)Cc2ccccc2)OCCCC[C@@H](C)O3)cc1	3	4	0.4
CCCC#Cc1ccc2c(c1)[C@@H]1[C@@H](CCN1S(=O)(=O)c1ccc(C)cc1)[C@@H](CO)N2C	-1	10	6.1
C[C@H]1CN([C@@H](C)CO)C(=O)Cc2cc(NC(=O)C3CC3)ccc2O[C@@H]1CN(C)C(=O)Nc1ccc(C(F)(F)F)cc1	2	4	-1.0
COc1ccc(NC(=O)Nc2ccc3c(c2)C(=O)N([C@H](C)CO)C[C@@H](C)[C@H](CN(C)Cc2ccc(C(F)(F)F)cc2)O3)cc1	-1	-11	2.6
C[C@@H]1CN([C@@H](C)CO)C(=O)c2cc(NC(=O)Nc3ccc4c(c3)OCO4)ccc2O[C@H]1CN(C)C(=O)Nc1ccc(C(F)(F)F)cc1	-3	-8	-1.0
O=C(C[C@H]1C[C@@H]2c3cc(NC(=O)NC4CCCC4)ccc3O[C@@H]2[C@@H](CO)O1)NCCc1ccccc1	1	-3	-1.2
Cc1ccc(S(=O)(=O)Nc2ccc3c(c2)C(=O)N([C@@H](C)CO)C[C@@H](C)[C@@H](CN(C)C(=O)NC2CCCCC2)OCCCC[C@H](C)O3)cc1	-3&1	-5&14	0.7&-2.6
COc1ccccc1S(=O)(=O)N(C)C[C@H]1OCc2ccccc2-c2ccccc2C(=O)N([C@H](C)CO)C[C@@H]1C	1	2	2.0
CC(NCC(=O)Nc1ccccc1C(=O)NC1CC1)c1ccc(Cl)cc1 (stereo unspecified)	-6	-16	4.9
O=C(NCCN1CCC(n2c(=O)[nH]c3ccccc32)CC1)c1ccccc1C(F)(F)F	14	12	3.8
Cc1noc(C)c1NC(=O)Nc1ccc2c(c1)C(=O)N([C@@H](C)CO)C[C@H](C)[C@H](CN(C)CC1CCCCC1)O2	3	2	-1.5
O=C1c2ccccc2C(=O)N1C1C=CC=CC=C1	14	11	0.8
Cc1noc(C)c1NC(=O)Nc1ccc2c(c1)C(=O)N([C@@H](C)CO)C[C@H](C)[C@H](CN(C)C)OCCCC[C@@H](C)O2	4	12	-0.9
CCS(=O)(=O)N1[C@H](CO)[C@@H](c2ccc(C#CCC3CCCC3)cc2)[C@@H]1C#N	-30	-60	-3.6
C[C@H](CO)N1C[C@H](C)[C@H](CN(C)C(=O)Nc2cccc3ccccc23)Oc2ccc(NC(=O)Nc3ccc(C(F)(F)F)cc3)cc2CC1=O	6	1	0.3
C[C@@H]1CCCCO[C@H](CN(C)C(=O)Nc2cccc3ccccc23)[C@@H](C)CN([C@@H](C)CO)C(=O)c2cc(NC(=O)CCCN(C)C)ccc2O1	-1	-9	7.1
O=C(O)c1c2c(nc3ccc(S(=O)(=O)N4CCC(C(=O)NCc5ccccc5)CC4)cc13)CCCC2	-2	4	6.1
C[C@@H]1CN([C@H](C)CO)C(=O)Cc2cc(NS(=O)(=O)c3cn(C)cn3)ccc2O[C@@H]1CN(C)CC1CC1	-2	-2	-0.7
COc1ccc(S(=O)(=O)N(C)C[C@H]2Oc3ccc(NC(=O)Cn4cnnn4)cc3CC(=O)N([C@H](C)CO)C[C@H]2C)cc1	2	-1	1.1
COC(=O)c1ccc2nc(-c3cccc(Cl)c3)c(Cc3ccccc3OC)n2c1	2	6	-4.2
C[C@H](CO)N1C[C@H](C)[C@H](CN(C)C(=O)Nc2ccc(F)cc2)OCCCC[C@H](C)Oc2ccc(NC(=O)CCC(F)(F)F)cc2C1=O	1	-3	-1.2
COc1cc(Cn2c3ccc(NC(=O)CCc4ccccc4)cc3c(=O)n2C)ccc1F	4	-16	5.7
CC(C)NC(=O)Nc1ccc2c(c1)C(=O)N([C@H](C)CO)C[C@H](C)[C@@H](CN(C)C(=O)CCCN(C)C)OCCCC[C@@H](C)O2	3	9	-2.4
COC(=O)[C@]12CCCCC=C1N(CCC1=CCCCC1)C(=O)[C@H](CC(=O)NCCCCc1ccccc1)C2	8	7	3.6

Next part.
SMILES	rRNA inh HTS	rRNA inh HTS OD600	rRNA inh HTS RFP
C[C@@H](NC(=O)[C@H]1N[C@H]2c3ccc(-c4cncnc4)c(=O)n3C[C@H]2[C@@H]1CO)c1ccccc1	-3	-1	0.7
CO[C@@H]1CN(C)C(=O)c2cc(NC(=O)NC(C)C)ccc2OC[C@H](C)N(Cc2cncnc2)C[C@H]1C	3	5	-0.6
C[C@H](CO)N1C[C@H](C)[C@@H](CN(C)C(=O)Nc2ccc3c(c2)OCO3)OCCCC[C@H](C)Oc2ccc(NC(=O)Nc3ccccc3)cc2C1=O	-2	1	-0.7
CO[C@@H]1CN(C)C(=O)c2cc(NC(=O)C3CC3)ccc2OC[C@H](C)N(CC2CCCC2)C[C@@H]1C	3	-1	1.6
Cc1noc(C)c1NC(=O)N(C)C[C@H]1Oc2c(NS(=O)(=O)c3c(C)noc3C)cccc2C(=O)N([C@@H](C)CO)C[C@H]1C	-1	-5	-4.1
COc1ccc(NC(=O)Nc2cccc3c2O[C@@H](CN(C)S(=O)(=O)c2ccc(C)cc2)[C@@H](C)CN([C@@H](C)CO)C3=O)cc1	-1	-9	-0.2
COCC#Cc1ccc2c(c1)O[C@H](CN(C)S(C)(=O)=O)[C@@H](C)CN([C@H](C)CO)S2(=O)=O	-2	6	2.6
COc1ccc2c3c([nH]c2c1)[C@H](CO)N(Cc1ccc(Cl)cc1)CC31CCN(Cc2nccs2)CC1	-1	-12	0.9
C[C@@H]1CCCCO[C@@H](CN(C)C(=O)NC2CCCCC2)[C@H](C)CN([C@H](C)CO)C(=O)c2cc(NS(=O)(=O)c3cn(C)cn3)ccc2O1	2	3	-0.2
Cc1cc(Br)cn2c(Cc3ccccc3)c(-c3cccc(Cl)c3)nc12	-12	-20	20
Cc1noc(C)c1NC(=O)N(C)C[C@H]1Oc2ccc(NC(=O)C3CC3)cc2CC(=O)N([C@H](C)CO)C[C@@H]1C	1	5	-0.3
COc1cccc(-c2ccc([C@H]3[C@H](CO)N4CCCCN(S(=O)(=O)c5cn(C)cn5)C[C@@H]34)cc2)c1	0	1	2.1
CC/C(=N\NC(=O)c1cc(C)oc1C)c1ccc(OC(F)F)cc1	2	4	-3.1
C[C@H](CO)N1C[C@H](C)[C@H](CN(C)Cc2ccc(Cl)c(Cl)c2)Oc2ccc(NS(=O)(=O)c3ccccc3)cc2CC1=O	0	5	0.5
COCC#Cc1cnc2c(c1)C(=O)N([C@@H](C)CO)C[C@@H](C)[C@H](CN(C)C(=O)c1cccc(F)c1)O2	-2	0	0.6
C[C@@H]1CCCCO[C@@H](CN(C)Cc2ccccc2)[C@@H](C)CN([C@@H](C)CO)C(=O)c2cc(NS(C)(=O)=O)ccc2O1	6	9	-2.8
CC(C)C[C@H]1COc2cc(Br)ccc2S(=O)(=O)N1Cc1ccc(Cl)cc1	3	5	0.8
Cc1ccccc1S(=O)(=O)N1CCCCN2[C@H](CO)[C@H](c3ccc(C#CCN(C)C)cc3)[C@H]2C1	2	5	-1.4
COc1ccc2c3c([nH]c2c1)[C@H](CO)N(CC1CC1)CC31CCN(C(=O)c2ccc(F)cc2)CC1	-2	1	5.5
C[C@@H]1CN([C@H](C)CO)C(=O)c2cc(NC(=O)Cc3cn(C)c4ccccc34)ccc2O[C@@H]1CN(C)C(=O)Nc1cccc2ccccc12	-1	-10	-0.1

In the list so far, 12 contain an aryl methoxy group.
SMILES	rRNA inh HTS	rRNA inh HTS OD600	rRNA inh HTS RFP
COc1ccc(NC(=O)Nc2ccc3c(c2)[C@H]2C[C@H](CC(=O)NCCc4ccccc4)O[C@@H](CO)[C@H]2O3)cc1	1	4	0.7
COc1ccccc1-c1ccc([C@H]2[C@@H](CO)N(C(=O)C3CCOCC3)[C@H]2C#N)cc1	0	-9	-0.8
COc1ccc(NC(=O)Nc2ccc3c(c2)C(=O)N([C@@H](C)CO)C[C@H](C)[C@H](CN(C)Cc2ccccc2)OCCCC[C@@H](C)O3)cc1	3	4	0.4
COc1ccc(NC(=O)Nc2ccc3c(c2)C(=O)N([C@H](C)CO)C[C@@H](C)[C@H](CN(C)Cc2ccc(C(F)(F)F)cc2)O3)cc1	-1	-11	2.6
COc1ccccc1S(=O)(=O)N(C)C[C@H]1OCc2ccccc2-c2ccccc2C(=O)N([C@H](C)CO)C[C@@H]1C	1	2	2.0
COc1ccc(S(=O)(=O)N(C)C[C@H]2Oc3ccc(NC(=O)Cn4cnnn4)cc3CC(=O)N([C@H](C)CO)C[C@H]2C)cc1	2	-1	1.1
COC(=O)c1ccc2nc(-c3cccc(Cl)c3)c(Cc3ccccc3OC)n2c1	2	6	-4.2
COc1cc(Cn2c3ccc(NC(=O)CCc4ccccc4)cc3c(=O)n2C)ccc1F	4	-16	5.7
COc1ccc(NC(=O)Nc2cccc3c2O[C@@H](CN(C)S(=O)(=O)c2ccc(C)cc2)[C@@H](C)CN([C@@H](C)CO)C3=O)cc1	-1	-9	-0.2
COc1ccc2c3c([nH]c2c1)[C@H](CO)N(Cc1ccc(Cl)cc1)CC31CCN(Cc2nccs2)CC1	-1	-12	0.9
COc1cccc(-c2ccc([C@H]3[C@H](CO)N4CCCCN(S(=O)(=O)c5cn(C)cn5)C[C@@H]34)cc2)c1	0	1	2.1
COc1ccc2c3c([nH]c2c1)[C@H](CO)N(CC1CC1)CC31CCN(C(=O)c2ccc(F)cc2)CC1	-2	1	5.5

Source: PubChem BioAssay (Broad Institute)
